Calb FLC – C. albicans growth inhibition with fluconazole, primary screen, CaCi-2 strain, Alamar Blue fluorescence; AID 1979, 2009; growth inhibition, % (concentration not given with the values); C. albicans CaCi-2 (fluconazole-resistant clinical isolate) + fluconazole, 48 h; 300,000 compounds, 0.57% hits;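 active = most replicates above 75%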;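 note: all wells also contain fluconazole at 8 µg/ml as a sub-toxic cotreatment; 0% = median of DMSO wells and 100% = median of geldanamycin control wells; wells of about 8 µL received 7.5 nL stock; the first replicate is given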
Beta cell apopt – inhibitors of cytokine-induced beta cell apoptosis, primary screen, luminescence; INS-1E cytokine-induced death, ATP luminescence, 48 h; percent of positive-control rescue, neutral wells zero; 300,000 compounds, 0.8% hits; protection from apoptosis, % (concentration not given with the values);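 active = all replicates at 75% or more, or half of them and the mean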;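 note: 0% = cytokine-treated negative control wells and 100% = positive control rescue; higher means more ATP so stronger rescue from cytokine killing; wells of about 40 µL received 100 nL stock; the first replicate is given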
rRNA inh HTS – reduced GFP signal of wild-type E. coli, primary screen, bacterial rRNA inhibitor project, GFP/RFP fluorescence, OD600, single point. 350,000 compounds, 1.6% hits. AID 720706, 2013. GFP signal change (wild-type ribosome), % (test concentration not listed). E. coli WT GFP vs humanized-ribosome RFP mutants, 24 h; stronger effect = lower value; DMSO median 0, no signal -100;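 active = significant combined selectivity score with lowered wild-type GFP, culture density cut under 30%, mutant RFP and density less affected; inactive = any of these conditions unmet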; note: one replicate is shown; some compounds called inactive have numbers as strong as hits
LANA-H2B inh – blockers of LANA interaction with H2A/H2B – biochemical, FP readout, HTS, primary screen; Protein LANA1 (Human herpesvirus 8 type P (isolate GK18)), Q9QR71; cell-free LANA-H2A/H2B peptide, fluorescence polarization; inhibition, % (test concentration not listed); 320,000 compounds, 0.6% hits; in the data active = inhibition mostly above about 10%, no sharp cut-off; inactive = mostly below about 6.7%;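 note: stock transfer was 7.5 nL into about 10 µL; 0% = median of vehicle wells and 100% = median of positive control wells; one replicate is shown; the record names a cut of 25% in any replicate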
Beta2AR agonist – beta2AR agonists driving receptor internalization, primary screen, cell-based, FAP fluorogen, flow cytometry; response, % (no concentration beside the values); 340,000 compounds, 0.43% hits; AID 504454, 2011; Am2.2-beta2AR cells; reference of the scale not given here;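 active = response above a set limit, near 3 SD of response in nonfluorescent compounds, cut at about 42% in these data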;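 note: stock transfer was 100 nL into about 11 µL; a reference agonist was the positive control; negative values mostly stem from fluorescent compounds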
Target sequence (P07550 whole entry, looked up): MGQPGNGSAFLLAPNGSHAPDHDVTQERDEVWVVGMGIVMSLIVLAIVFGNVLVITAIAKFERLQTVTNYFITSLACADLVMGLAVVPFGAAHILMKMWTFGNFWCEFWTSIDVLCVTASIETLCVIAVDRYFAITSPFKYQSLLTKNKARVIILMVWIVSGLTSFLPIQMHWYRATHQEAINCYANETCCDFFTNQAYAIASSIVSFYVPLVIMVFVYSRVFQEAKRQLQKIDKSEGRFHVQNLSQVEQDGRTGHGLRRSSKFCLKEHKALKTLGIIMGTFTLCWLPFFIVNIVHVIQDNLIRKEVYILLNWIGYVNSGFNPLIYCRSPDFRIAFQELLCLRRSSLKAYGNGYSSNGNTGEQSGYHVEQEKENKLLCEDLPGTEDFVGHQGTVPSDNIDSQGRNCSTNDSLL
ALR H2O2 inh – inhibitors of human ALR sulfhydryl oxidase, primary screen, biochemical, H2O2 detection, HRP-luminol luminescence, single point; FAD-linked sulfhydryl oxidase ALR (Homo sapiens), P55789; purified ALR, DTT oxidation; inhibition, % (concentration not given with the values); 290,000 compounds, 3.8% hits; AID 485317, 2010;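 active = mean and each replicate at 75% or more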;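 note: stock transfer was 7.5 nL into about 7.5 µL; 0% = neutral wells and 100% = wells with inactivated enzyme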
Target sequence (P55789 whole entry, looked up): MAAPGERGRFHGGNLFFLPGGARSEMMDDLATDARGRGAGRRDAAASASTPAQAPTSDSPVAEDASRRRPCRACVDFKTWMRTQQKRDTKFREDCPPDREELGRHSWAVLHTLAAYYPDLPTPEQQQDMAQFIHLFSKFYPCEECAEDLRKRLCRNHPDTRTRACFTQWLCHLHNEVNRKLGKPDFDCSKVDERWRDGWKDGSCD
T cruzi inh – inhibitors of intracellular T. cruzi growth, primary screen, luminescence, NIH3T3 host cells. T. cruzi beta-gal in NIH3T3, 90 h. inhibition, % (no concentration beside the values). 300,000 compounds, 1.4% hits. AID 1885, 2009;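 active = mean inhibition across valid replicates above about 55%, limit read from the data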;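 note: signal also drops with host cell toxicity which is not excluded here; 0% = plate median of DMSO wells and 100% = zero luminescence signal; higher percent means less beta-gal luminescence so fewer parasites; stock transfer was 50 nL into about 50 µL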
Bfl-1 A1 inh – caspase 3/7 activation in MEF A1-2A-BIM cells, primary screen, A1 inhibitor project, cell-based, luminescence, HTS; Caspase-Glo 3/7 luminescence, 3 h; percent of clofoctol response, vehicle zero; caspase activation, % (no concentration beside the values); 330,000 compounds, 0.066% hits; AID 2462, 2010;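 active = over half of replicate activation scores above 10%, or exactly half above 10 with the replicate mean above 10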;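 note: wells of about 30 µL received 50 nL stock; many hits fall short of the cut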
rRNA inh HTS OD600 – also measured in rRNA inh HTS; calls as there; OD600 change, %; measured here: OD600 growth;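 optical density of the mix in the first replicate; 0 = DMSO median and -100 = no signal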
rRNA inh HTS RFP – recorded beside rRNA inh HTS, whose call it bears; RFP signal change, %; measured here: RFP humanized mutant strains;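 first replicate; 0 = DMSO median and -100 = no signal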
The depositor's hits bear a star; · = no result given.

Results follow in this order: rRNA inh HTS	Bfl-1 A1 inh	LANA-H2B inh	Beta cell apopt	Calb FLC	ALR H2O2 inh	T cruzi inh	rRNA inh HTS OD600	Beta2AR agonist	rRNA inh HTS RFP
> COc1ccc(N2CCC(CNC(=O)Nc3ccc(Cl)cc3)C2)cc1 (stereo not drawn)
    -52	0.5	-0.8	10	-1	31	25	-67	-14	0.2
> CC1(C)SC2c3ccccc3C(=O)N2[C@@H]1C(=O)O (stereo partly drawn)
    16	0.7	3.8	-3	-1	·	-7	17	-3	3.5
> CC(O)CNC(=O)Cc1cc(=O)[nH]c(=O)[nH]1 (stereo not drawn)
    -1	0.2	6.7	-2	-7	-8	0	6	1	2.1
> O=C(Nc1cccc(NC(=O)c2cccs2)c1)c1ccc(F)cc1
    -28*	0.6	1.7	0	33	·	9	-21*	-8	-11*
> COc1cc(NC(=O)c2cc(S(=O)(=O)N3CCc4ccccc43)cn2C)cc(OC)c1OC
    6	0.6	1.0	6	24	-4	22	18	9	9.0
> COCCN1C(=O)c2[nH]nc(-c3ccccc3O)c2C1c1ccc(OC)cc1 (stereo not drawn)
    -16	-0.9	5.4	6	6	30	7	-11	-13	4.4
> CCn1c(CSc2nc3ccccc3s2)nc2ccccc21
    ·	-0.6	-1.8	4	-8	39	5	·	-1	·
> CCC1(C(=O)OC)CCc2c(cc(OC)c3ccccc23)C1=O (stereo not drawn)
    -27*	-1.2	8.1	0	-25	·	15	-14*	-17	-0.9*
> C[C@@H](CN1C(=O)C(=O)NC[C@@H]1Cc1ccc(O)cc1)NC(=O)Cc1ccccc1
    6	-0.4	3.4	-5	-5	-1	-20	9	-1	-3.8
> Cc1ccnc(SCCn2c(N3CCN(c4ccccc4)CC3)nc3c2c(=O)[nH]c(=O)n3C)n1
    4	-0.2	1.1	-8	9	36	5	9	0	-1.2
> C=C(C)C(=O)Nc1cccc(C2=NOC3(C2)C[C@@H](C(N)=O)N(C(=O)/C=C/C=C/C)C3)c1 (stereo partly drawn)
    4	-1.7	-1.2	0	-6	-9	-13	14	5	4.2
> N#Cc1ccc(N2CCN(C(=O)c3cccc(F)c3)CC2)c(F)c1
    -2	0.2	2.6	4	1	-6	-8	-24	-3	0.0
> CCc1nc2ccccc2n1CC(C)C(=O)O (stereo not drawn)
    ·	-0.6	1.4	·	-9	-10	-5	·	0	·
> CN(C)/C=C/c1[nH]c(=O)[nH]c(=O)c1[N+](=O)[O-]
    10	-0.6	-1.8	-7	14	5	-1	6	3	-4.4
> CCn1c(C(=O)NCCCN2CCc3ccccc3C2)cc2sccc21
    ·	-0.1	-2.9	-5	-54	-13	11	·	-2	·
> O=C(NCCCn1ccnc1)c1ccc(OCC(F)(F)F)cc1
    6	0.0	7.7	9	2	1	-11	9	-5	-2.3
> COc1ccccc1CNC(=O)c1cccc(S(=O)(=O)N2CCN(C)CC2)c1
    -2	2.3	0.1	2	14	-1	0	1	-3	-3.8
> O=C(NC1CC1)c1ccc2c(c1)N(Cc1ccc(Cl)cc1)CCS2
    -6	0.5	2.8	-7	2	29	28	-5	-12	-2.9
> COC(=O)c1ccc(NC(=S)NC(=O)c2cccnc2)cc1
    -1	-0.4	-0.2	-3	-8	-6	-6	10	-4	-1.3
> O=C(c1cc(-c2ccco2)on1)N1CCN(C(c2ccccc2)c2ccccc2)CC1
    ·	0.3	0.8	4	-9	-1	10	·	12	·
> ClC(=C\c1ccccc1)/C=N/N1CCN(c2ccccn2)CC1
    ·	-8.2	-2.3	-2	-20	0	11	·	-10	·
> COc1ccc(OCC(=O)N/N=C/c2ccsc2)cc1
    ·	-0.4	·	-3	4	·	-19	·	-5	·
> c1ccc(-c2sc3ccccc3c2-c2ccc(OCCN3CCOCC3)cc2)cc1
    ·	3.4	2.6	-8	·	-4	·	·	-4	·
> O=C(Oc1ccc(/C=N/NC(=O)c2ccccc2F)cc1)c1ccccc1
    0	0.5	-0.9	-12	0	-13	0	4	6	0.9
> Cc1ccc(OCCN(C)C(=O)C2CCC(=O)N(Cc3ccccc3F)C2)cc1 (stereo not drawn)
    1	-0.2	2.5	·	0	-10	0	-2	1	0.6
> Cc1[nH]n(-c2ccccc2)c(=O)c1/C=N/NC(=O)c1ccc(O)cc1O
    -11	-5.7	-0.4	·	-16	·	-11	-10	-5	-0.8
> CCn1c(SCC(=O)Nc2ccc(N3CCOCC3)cc2)nnc1C1CC1
    0	-0.5	16	-3	·	99*	·	5	-12	-3.0
> O=C(Nc1ccc(NC(=O)c2ccc3c(c2)OCO3)cc1)c1cccc(Cl)c1
    3	0.2	·	1	·	4	·	11	-7	-1.3
> O=C(CCc1ccc(S(=O)(=O)N2CCOCC2)cc1)N1CCN(Cc2ccc3c(c2)OCO3)CC1
    ·	0.7	2.8	3	-13	3	17	·	12	·
> CCN(CC)c1nc(Nc2ccccc2)nc(Oc2ccc(=O)[nH]n2)n1
    ·	0.5	-2.2	7	8	-6	14	·	-13	·
> COc1cccc(C2c3c(oc4ccccc4c3=O)C(=O)N2CCCN2CCOCC2)c1 (stereo not drawn)
    3	-0.8	-0.8	-4	4	-4	-5	3	-17	-0.8
> COc1ccc(CCNC(=O)CSc2nnc(-c3ccco3)c(-c3ccco3)n2)cc1OC
    ·	-0.7	-1.3	3	15	·	6	·	·	·
> COC(=O)c1nnn(-c2nonc2N)c1CN1CCc2ccccc21
    ·	0.4	-2.3	-9	-1	98*	-6	·	14	·
> Nc1cc(C2CCCC2)nn1-c1ccccc1
    ·	-7.5	0.2	2	·	10	20	·	-2	·
> O=C(Nc1ccccc1Cc1ccccc1)c1oc2ccccc2c1COc1ccccc1
    14	0.0	3.2	6	-4	-14	33	5	1	-7.8
> Cc1c(Cl)cccc1N=Cc1ccc([N+](=O)[O-])s1
    ·	-1.4	-0.7	-7	20	-3	51	·	1	·
> COc1ccc(N2CCN(S(=O)(=O)c3ccc(OC)c(C(=O)N4CCCCC4)c3)CC2)cc1
    -2	2.0	-6.0	-3	-7	·	7	-2	4	2.2
> CCOc1ccc(C(=O)N2CCN=C2SC)cc1OCC
    ·	-0.2	-5.1	-10	-9	2	5	·	2	·
> Cc1c(C(=O)Nc2ccc(-c3nnc4n3CCCCC4)cc2)oc2c1ccc1ccccc12
    ·	0.0	3.8	32	4	5	56*	·	19	·
> CC(C)c1ccc(N(C(=O)c2ccco2)C(C(=O)NC2CCCC2)c2cccnc2)cc1 (stereo not drawn)
    -2	0.2	-0.3	6	-5	·	8	5	-1	-0.3
> Cc1nnc(Cl)c2nn(-c3ccccc3F)c(C)c12
    13	0.0	-3.4	-5	13	-2	9	4	7	0.4
> Cc1ccc(S(=O)(=O)Cn2nnnc2C(CC(C)C)N2CCC(C(N)=O)CC2)cc1 (stereo not drawn)
    -2	-0.6	-3.3	-4	3	-6	-1	6	-2	2.7
> CCOc1ccc(NC(=O)CC(Cc2ccc(Cl)cc2)C(=O)O)cc1 (stereo not drawn)
    -13	0.8	-2.1	-3	-6	-7	-4	-3	-8	-15
> O=C(c1cccc(F)c1)N1CCN(C(=O)c2nn3cccnc3c2Cl)CC1
    ·	-0.4	-1.6	·	5	-4	-25	·	-4	·
> O=C(Cc1ccccc1)n1nc(-c2ccccc2)nc1NCc1ccco1
    6	0.8	-5.7	·	0	-12	-7	14	1	15
> CCS(=O)(=O)NCC(c1ccco1)N1CCN(c2ccc(F)cc2)CC1 (stereo not drawn)
    ·	2.3	-0.6	-5	-3	62	-21	·	2	·
> NC1=NC[C@H](Cc2ccc(O)cc2)N1CCc1cccc(F)c1
    7	0.5	-5.1	-7	-17	10	-19	5	-3	-1.6
> COc1ccccc1Cn1c(CO)nc2ccccc21
    -1	0.6	-6.3	-2	-6	-3	5	-9	-1	-7.0
> CN(C)C=Nc1ccccc1C1C=NNC1=O (stereo not drawn)
    ·	0.0	2.0	0	-11	11	-12	·	·	·
> COCCN(C(=O)Nc1ccc(F)cc1F)c1nc2ccccc2s1
    11	-0.7	3.0	2	-3	-21	-7	19	0	-0.4

Next results follow.
Results follow in this order: rRNA inh HTS	Bfl-1 A1 inh	LANA-H2B inh	Beta cell apopt	Calb FLC	ALR H2O2 inh	T cruzi inh	rRNA inh HTS OD600	Beta2AR agonist	rRNA inh HTS RFP
> O=C(CSc1ncccn1)N1CCN(C(c2ccccc2)c2ccccc2)CC1
    1	1.1	1.1	0	9	-27	4	-10	7	5.0
> CCn1c(-c2cccnc2Cl)nc2cc(C)c(C)cc21
    ·	-0.1	5.1	5	15	-14	-4	·	9	·
> COc1cccc(-c2cc(C(=O)NCC3CCCO3)c3cc(C)cc(C)c3n2)c1 (stereo not drawn)
    5	-0.3	2.8	·	9	-1	1	0	21	-0.7
> Cc1ccc(S(=O)(=O)N2CCC(C(=O)N3CCCC3C(=O)N[C@@H](CC(C)C)C(=O)NCC(N)=O)CC2)cc1 (stereo partly drawn)
    ·	0.0	4.1	-4	7	-4	0	·	-2	·
> Cc1ccc(C(C[N+](=O)[O-])n2nc(C)cc2C)cc1 (stereo not drawn)
    ·	1.1	1.0	10	0	-2	-16	·	18	·
> Cc1ccc(S(=O)(=O)N2CCOC2CNC(=O)C(=O)NCCc2ccc(S(N)(=O)=O)cc2)cc1 (stereo not drawn)
    6	-0.5	-3.1	-36	2	-3	0	-2	3	-7.5
> CC(C)(C)NC(=O)COc1coc(CN2CCN(C(=O)c3ccco3)CC2)cc1=O
    7	0.0	-1.0	·	0	-5	-8	9	0	-2.5
> COC(=O)c1oc2ccccc2c1-n1cccc1
    ·	-0.3	-4.7	0	3	-3	4	·	8	·
> O=C1CCC(C(=O)N2CCN(c3ccccc3Cl)CC2)CN1CC1CCCCC1 (stereo not drawn)
    2	-0.6	3.7	2	-4	16	0	-26	5	2.6
> CC(C(=O)Nc1ccc2c(c1)OCO2)N1CCC(N2CCCCC2)CC1 (stereo not drawn)
    -15	0.1	·	-2	·	-3	·	-17	-16	5.2
> Cc1ccc(S(=O)(=O)NCCC(=O)N2CCN(c3cccc(Cl)c3)CC2)cc1C
    ·	-1.2	-5.3	6	4	-1	24	·	6	·
> CCOc1ccc(-n2c(Cc3cc(=O)[nH]c(=O)[nH]3)nnc2SCC(=O)NC2CCCC2)cc1
    12	1.4	-6.4	-2	·	-1	·	7	2	-1.5
> CCOC(=O)C(=CNCC(=O)OC)C(=O)OCC
    ·	0.9	0.3	-2	-5	-11	-6	·	-8	·

Looked up above:
Bfl-1 A1 inh, O=C(CSc1ncccn1)N1CCN(C(c2ccccc2)c2ccccc2)CC1 reads 1.1
LANA-H2B inh, O=C1CCC(C(=O)N2CCN(c3ccccc3Cl)CC2)CN1CC1CCCCC1 (stereo not drawn) reads 3.7

Assay outcomes deposited in PubChem BioAssay by several laboratories.

This is a subset. The share of hits here may be higher or lower than overall.
